Bioassay records (PubChem)
B2AR ag – human beta-2 adrenergic receptor agonism by FAP | Am2.2-beta2AR cells, FAP receptor internalization, flow cytometry; reference of the scale not given here | response, % (test concentration not listed) | P07550 | 340,000 tested, 0.43% active;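 active = response above a set limit, near 3 SD of response in nonfluorescent compounds, cut at about 42% in these data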;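 note: stock transfer was 100 nL into about 11 µL; a reference agonist was the positive control; negative values mostly stem from fluorescent compounds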
HNF4A DNA FP – change in binding of human HNF4 alpha to DNA. activity change, % at 10 µM. 360,000 tested, 0.3% active. HNF4a-FITC DNA binding, fluorescence polarization, 1 h; in the data active = activity change above about 30%, passing the limit was not always enough;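 note: controls were the assay level and a saturating level of protein; the project sought stronger binding though the title names inhibitors; some compounds called inactive have numbers as strong as hits; positive values seem to mean higher polarization but the record does not say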
Target sequence (P41235 whole entry, looked up): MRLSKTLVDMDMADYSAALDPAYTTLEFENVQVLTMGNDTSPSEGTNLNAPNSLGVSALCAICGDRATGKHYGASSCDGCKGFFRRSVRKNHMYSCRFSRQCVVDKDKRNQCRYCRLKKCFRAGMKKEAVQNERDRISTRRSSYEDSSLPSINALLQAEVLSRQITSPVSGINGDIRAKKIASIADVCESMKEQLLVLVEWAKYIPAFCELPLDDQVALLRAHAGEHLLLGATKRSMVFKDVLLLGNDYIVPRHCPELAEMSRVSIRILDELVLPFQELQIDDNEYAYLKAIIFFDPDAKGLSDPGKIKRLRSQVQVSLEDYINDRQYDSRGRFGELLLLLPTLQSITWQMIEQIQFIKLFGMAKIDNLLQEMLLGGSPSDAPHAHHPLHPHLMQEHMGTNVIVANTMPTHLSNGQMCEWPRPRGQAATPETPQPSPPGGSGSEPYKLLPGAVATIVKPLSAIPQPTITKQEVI
UCH37 DUB inh – blocks the human deubiquitinase UCH37; purified proteasome/UCH37, Ub-AMC cleavage fluorescence; Q9Y5K5; 330,000 tested, 0.33% active; inhibition, % (test concentration not listed);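 active = mean of two replicates above 20%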;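 note: 0% = compound-free wells with enzyme and 100% = wells lacking proteasome; stock transfer was 100 nL into about 20 µL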
Target sequence (Q9Y5K5 whole entry, looked up): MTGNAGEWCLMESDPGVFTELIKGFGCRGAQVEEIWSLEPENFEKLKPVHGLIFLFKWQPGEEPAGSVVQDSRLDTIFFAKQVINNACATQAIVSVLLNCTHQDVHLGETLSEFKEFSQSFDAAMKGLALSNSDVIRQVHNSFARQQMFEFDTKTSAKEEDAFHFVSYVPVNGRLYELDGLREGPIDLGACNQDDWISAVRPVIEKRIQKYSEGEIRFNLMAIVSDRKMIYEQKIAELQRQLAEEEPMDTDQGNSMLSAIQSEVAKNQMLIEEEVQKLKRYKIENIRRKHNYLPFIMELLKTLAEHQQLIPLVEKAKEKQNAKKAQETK
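assay system = human UCH37 enzyme supplied as purified proteasome complex | amount = proteasome at 0.15 nM in the dispensed enzyme solution | schedule = 30 min compound-proteasome preincubation then 25 min substrate reaction, room temperature | measured by = fluorescence, ex 355 nm, em 460 nm | benchmarks = no-proteasome wells (full inhibition) and compound-free wells (no inhibition)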
LANA-H2A inh – blocks KSHV LANA binding to histone H2A/H2B; Q9QR71; cell-free LANA-H2A/H2B peptide, fluorescence polarization; inhibition, % (test concentration not listed); 320,000 tested, 0.6% active; in the data active = inhibition mostly above about 10%, no sharp cut-off; inactive = mostly below about 6.7%;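 note: stock transfer was 7.5 nL into about 10 µL; 0% = median of vehicle wells and 100% = median of positive control wells; one replicate is shown; the record names a cut of 25% in any replicate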
Bfl-1 A1 inh – inhibitors of the anti-apoptotic protein A1, read as caspase activation. 330,000 tested, 0.066% active. MEF A1-2A-BIM cells, Caspase-Glo 3/7 luminescence, 3 h; percent of clofoctol response, vehicle zero. caspase activation, % (concentration not given with the values);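 active = over half of replicate activation scores above 10%, or exactly half above 10 with the replicate mean above 10; inconclusive = replicate mean below 10 yet half the replicates above 10; inactive = over half of replicates below 10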;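 note: wells of about 30 µL received 50 nL stock; many hits fall short of the cut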
Ecoli growth – E. coli growth inhibition; Escherichia coli growth, OD600, 23 h; active compounds read low; OD600 absorbance (no concentration beside the values); 330,000 tested, 0.21% active;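 active = OD600 absorbance below the run mean of sample wells minus 3.6 SD, in any replicate, cut at about 0.56 in these data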;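 note: stock transfer was 300 nL into about 60 µL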
Vif A3G – inhibitors of Vif binding to APOBEC3G peptide, primary screen, biochemical, TR-FRET, GST-Vif 1-94, biotin-A3G peptide, dose response retest (AID 1117319); inhibition, %; hits with a dose series show IC50 in µM; TR-FRET GST-Vif / biotin-A3G peptide binding; higher % means a stronger effect; test concentration not given here; strong numbers were not always called active; 260,000 tested, 0.57% active;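 active = above the screen mean plus three standard deviations and confirmed in dose response; inconclusive = results disagree or hit not tested in dose response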;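 note: Vif residues 1-94 fused to GST binding biotinylated APOBEC3G peptide 110-148; 0% = full assay without inhibitor and 100% = GST in place of GST-Vif; retest series ran down from 100 µM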
* hit, by the source's call; i = inactive; ? = inconclusive; . = not tested or not shown; & = joins results of further samples.

SMILES	B2AR ag	HNF4A DNA FP	UCH37 DUB inh	LANA-H2A inh	Bfl-1 A1 inh	Ecoli growth	Vif A3G
CC(=O)N(c1ccccc1)C1CC(C)N(C(=O)c2ccccc2)c2ccccc21 (stereo unspecified)	-3	-0.1	3.2	-1.8	1.1	0.64	.
O=C(NCc1ccccc1)Nc1cccn(Cc2ccc(F)cc2)c1=O	-5	-0.4	-6.4	-1.7	0.6	0.65	.
O=C(CCCCO)c1ccc(O)c(Cl)c1	0	0.7	4.2	6.6	-0.8	0.68	.
COc1ccc(S(=O)Cc2ccc(C(=O)NC3CC3)o2)cc1 (stereo unspecified)	1	-1.9	1.3	0.4	-0.6	0.68	.
O=C(CN1C(=O)NC2(CCCCCC2)C1=O)c1ccc(OC(F)F)cc1OC(F)F	0	2.2	1.3	-1.3	-0.4	0.67	-7%
COc1cc2c(cc1OC)C(c1ccco1)CC(=O)N2 (stereo unspecified)	10	2.2	3.3	-4.2	0.3	0.71	?
CC(=O)c1c(C)nc(C)nc1NC(=O)Cc1ccccc1	0	4.5	0.5	-8.3	?	0.71	23%
CCn1c(SCC(=O)OC2CCCCC2)nc2ccccc2c1=O	2	-0.4	2.3	-0.5	0.6	0.66	0%
CC(C)(C)NC(=O)C(=O)NC(=O)c1c(F)cccc1Cl	8	0.4	3.9	2.0	0.4	0.68	-7%
Cc1onc(-c2c(F)cccc2Cl)c1C(=O)N[C@@H]1C(=O)N2C(C(=O)O)C(C)(C)S[C@H]12 (stereo partly specified)	1	-3.3	0.9	3.9	1.2	.	.
CSc1nc2cc3c(cc2n1C(=O)c1ccc(C)cc1)OCCO3	-1	4.5	-7.4	0.3	-1.4	0.74	-10%
CCCOC(=O)CSC1=C(C#N)C(c2ccccc2OCC)C(C#N)C(=O)N1 (stereo unspecified)	14	3.0	3.1	-4.6	2.2	0.71	-3%

Full records, quoted from the list.
Record of CC(=O)c1c(C)nc(C)nc1NC(=O)Cc1ccccc1 = B2AR ag: 0; HNF4A DNA FP: 4.5; UCH37 DUB inh: 0.5; LANA-H2A inh: -8.3; Bfl-1 A1 inh: ?; Ecoli growth: 0.71; Vif A3G: 23%
Record of COc1ccc(S(=O)Cc2ccc(C(=O)NC3CC3)o2)cc1 (stereo unspecified) = B2AR ag: 1; HNF4A DNA FP: -1.9; UCH37 DUB inh: 1.3; LANA-H2A inh: 0.4; Bfl-1 A1 inh: -0.6; Ecoli growth: 0.68; Vif A3G: .
Record of CC(=O)N(c1ccccc1)C1CC(C)N(C(=O)c2ccccc2)c2ccccc21 (stereo unspecified) = B2AR ag: -3; HNF4A DNA FP: -0.1; UCH37 DUB inh: 3.2; LANA-H2A inh: -1.8; Bfl-1 A1 inh: 1.1; Ecoli growth: 0.64; Vif A3G: .

More results follow.
SMILES	B2AR ag	HNF4A DNA FP	UCH37 DUB inh	LANA-H2A inh	Bfl-1 A1 inh	Ecoli growth	Vif A3G
O=C1CCCCC1c1cccc2ccccc12 (stereo unspecified)	-4	0.5	0.8	-2.3	0.8	0.65	-1%
Cn1c(=O)n(CCCOc2ccc(Cl)cc2)c2ccccc21	-8	2.4	-0.8	-0.2	-0.3	0.73	-1%
CCC(C)(C)n1nnnc1C(c1ccc(O)c(OC)c1)N1CCN(c2nc3ccccc3s2)CC1 (stereo unspecified)	-3	-0.6	4.4	2.4	1.0	0.75	0%&-10%
CCOC(=O)c1ccc(NC(=S)NCC(O)c2ccccc2)cc1 (stereo unspecified)	-16	3.9	1.6	0.3	-0.5	.	1%
CC(C)C(NC(=O)Cc1ccccc1[N+](=O)[O-])C(C)C	0	-0.3	2.7	-2.2	0.1	0.64	13%
CCOc1ccccc1OCCC(=O)OCC(=O)Nc1c(C)cc(C)cc1C	-7	0.7	0.3	-22	0.6	0.67	-4%
CC(c1ccon1)N(C)Cc1cn(C)nc1-c1ccc2c(c1)OCCO2 (stereo unspecified)	12	3.6	4.7	0.3	-1.1	0.69	?
CCCOc1cccc(C(=O)Nc2cccnc2)c1	-22	-1.9	5.4	1.7	0.2	0.67	-1%
CCOC(=O)C1CCN(Cc2cccc(OCc3ccccc3)c2)CC1	1	-2.4	4.3	1.8	0.7	0.66	.
COC(c1ccccc1)c1nnc(CCC(=O)NC2CCCCC2)o1 (stereo unspecified)	3	3.3	5.4	4.1	1.5	0.66	13%
Cc1nc2cc(-n3ccc(=O)cc3)ccc2n1-c1ccccc1	-2	-4.4	0.8	-3.0	0.6	0.68	-3%
COCON1C(=O)CN(C(C)=O)C1c1ccc(Cl)cc1Cl (stereo unspecified)	-2	-3.3	6.5	6.7	1.6	0.77	?

Single entries from above:
For Ecoli growth, Cc1nc2cc(-n3ccc(=O)cc3)ccc2n1-c1ccccc1 shows 0.68
For B2AR ag, COC(c1ccccc1)c1nnc(CCC(=O)NC2CCCCC2)o1 (stereo unspecified) shows 3

Remaining list, next part.
SMILES	B2AR ag	HNF4A DNA FP	UCH37 DUB inh	LANA-H2A inh	Bfl-1 A1 inh	Ecoli growth	Vif A3G
CCOc1ccc(N2C(=O)CC(n3ccc(C)n3)C2=O)cc1 (stereo unspecified)	8	0.3	1.7	0.3	0.5	0.71	.
O=C(NCC(c1ccco1)N1CCCC1)c1sc2ccccc2c1Cl (stereo unspecified)	-8	-3.2	1.5	1.0	-1.1	0.69	.
O=C(Nc1cc(Cl)ccc1Cl)C1CCCO1 (stereo unspecified)	-4	-1.1	1.4	1.7	0.6	0.61	-3%
CC1Cc2ccccc2N1C(=O)Cn1c(=O)oc2cc(S(=O)(=O)NC3CCCC3)ccc21 (stereo unspecified)	5	-1.8	7.3	-3.6	0.8	0.78	-2%
COC(CNC(=O)C1CCCN(S(=O)(=O)c2ccc3c(c2)oc(=O)n3C)C1)OC (stereo unspecified)	0	4.4	1.7	4.2	-0.6	0.7	3%
Cc1ccc(NC(=O)c2cc(NC(=O)CCC(=O)O)ccc2N2CCCCC2)cc1	-2	-0.3	1.1	-1.3	1.3	0.68	-2%
CCOc1cc(C(=O)N/N=C/C(Br)=C/c2ccccc2)cc(OCC)c1OCC	-1	1.3	.	-2.8	2.3	.	.
O=C(c1ccc(NS(=O)(=O)c2ccc(F)cc2)cc1)N1CCN(c2ccccc2O)CC1	11	-1.2	5.8	0.7	0.1	0.69	.
CCSc1nc2sc3c(c2c(=O)[nH]1)CC(C)(C)OC3	10	-3.1	1.9	4.3	-0.5	0.7	-7%
Cc1ccc(S(=O)(=O)N(C)c2nc3ccccc3[nH]c2=S)cc1	4	0.4	3.0	1.7	-0.7	0.71	.
COC(=O)CSc1nnc(CNS(=O)(=O)c2ccc(C)cc2)n1C	-6	4.3	0.6	2.8	0.4	0.73	-6%
COc1cccc(NC(=S)N(CCCN2CCOCC2)C(C)c2cc3cccc(OC)c3o2)c1 (stereo unspecified)	-2	-0.5	4.0	4.4	0.7	0.7	26%
CCS(=O)(=O)Nc1c(C(=O)OC)[nH]c2ccccc12	3	0.6	-1.7	3.4	-0.8	0.65	-1%
CC(C)C(NC(=O)c1ccco1)C(=O)NCc1ccc(C(=O)O)cc1 (stereo unspecified)	3	-2.2	6.5	4.5	0.0	0.71	.
O=C(Nc1ccc(F)cc1F)c1ccc2ncsc2c1	-7	2.2	2.5	0.5	-6.2	0.66	.
Cc1cc(F)c(F)c(C(=O)N2CCOCC2)c1Cl	4	-1.9	0.6	-0.9	3.0	0.73	-2%
CN(C(=O)CO/N=C/c1ccc(Cl)cc1)c1ccccc1	1	-5.5	.	9.7	0.6	.	-4%
COc1ccccc1NC(=O)CSc1nnc(NC(=O)C2CC2)s1	-6	-0.8	2.1	-2.2	0.2	0.66	.
Cc1cc(-c2ccccc2)cc(C)n1	8	-0.6	-0.4	.	.	0.6	-7%
O=c1[nH][nH]c2ccccc2c1=O	3	-2.5	0.1	3.9	0.5	0.71	5%
Clc1cccc(CN2C3=NCCCN3c3ccccc32)c1	-14	-2.9	-0.7	-1.5	-0.2	0.63	-10%
COc1ccc(C2C(C(=O)c3sc(C)nc3C)=C(O)C(=O)N2CCN(C)C)cc1 (stereo unspecified)	0	-1.7	5.9	-0.7	-0.5	0.77	4%
Cc1cnc(=O)[nH]c1SCc1ccccc1F	7	1.9	1.8	-1.6	0.0	0.68	.
O=C1CCC/C(=N\NC(=O)c2ccc(COc3ccccc3-c3ccccc3)cc2)C1	7	6.9	.	-0.3	-0.4	.	.
CCOc1ccc(NC(=O)CNc2cccc(S(=O)(=O)N3CCCCCC3)c2)cc1OCC	-1	-1.1	1.1	1.1	1.5	0.66	.
Cc1cc(C(c2nnnn2Cc2ccccc2)N2CCOCC2)c(C)n1-c1ccc2c(c1)OCO2 (stereo unspecified)	8	1.4	5.7	0.6	0.1	0.73	22%
COc1ccc(NC(=O)C(CC(=O)O)Cc2ccccc2)cc1 (stereo unspecified)	1	3.4	-0.1	-3.3	0.7	0.71	14%
O=C(Nc1cccc(Cl)c1)c1ccc2c(c1)SC1=NS(=O)(=O)CCN12	-14	-1.2	4.3	.	.	0.69	.
Cc1ccc(S(=O)(=O)Nc2ccc3ccccc3c2)cc1	10	-1.3	5.9	.	.	0.63	-9%
Cc1cc(=O)c2c([nH]1)c(C)cc1[nH]c(C)c(C)c12	9	-60	i	1.8	0.0	0.69	.
Cc1ccc(/C=C/C(=O)NC(C)c2ccccc2)cc1 (stereo unspecified)	2	-2.2	5.9	1.4	0.3	0.7	-4%
CCC(CC)C(=O)c1c[nH]c(C(=O)NCc2ccccn2)c1	2	-0.2	5.6	-2.5	0.3	0.71	0%
Cn1cc(/C=N/NC(=O)c2ccccc2O)c2ccccc21	0	2.3	.	0.8	-0.5	.	-1%
COc1ccc(S(=O)(=O)c2c(O)c3ccc(C(=O)Nc4cccc(F)c4)cc3[nH]c2=O)cc1	27	5.2	3.4	-3.2	-0.7	0.72	.
CN(Cc1nc(CCc2ccccc2)no1)Cc1cccs1	-3	0.8	5.4	1.6	-0.3	0.69	.
O=C1c2ccccc2C(Nc2ccc3nc(-c4cccnc4)[nH]c3c2)N1Cc1ccco1 (stereo unspecified)	-4	-0.8	-18	-0.4	-0.1	0.74	6%
Cc1sc2ncnc(SCC(=O)N3CCCC(C(N)=O)C3)c2c1C (stereo unspecified)	2	1.6	3.3	-5.1	-0.1	0.66	-4%
CCOC(=O)CN(C(=O)CSc1nnc(Cc2ccccc2)n1-c1ccc(C)cc1)c1ccccc1	-3	-4.1	-3.6	0.7	-0.8	0.75	8%
C[C@H](Cc1ccccc1)Nc1ncnc2c1ncn2[C@@H]1O[C@H](CO)[C@@H](O)[C@H]1O	-7	6.2	3.1	-11	0.1	.	.
CC(C)(C)c1ccc(NC(=O)COC(=O)CCN2C(=O)c3cccc([N+](=O)[O-])c3C2=O)cc1	-1	-1.9	3.4	-1.9	-0.2	0.7	.
O=C(O)CCC(NC(=O)C1CCCN1C(=O)OCc1ccccc1)C(=O)O (stereo unspecified)	-4	-3.1	2.4	1.7	0.4	0.66	1%
C=CCn1c2ccccc2c2nnc(SC(CC)C(=O)Nc3sc4c(c3C#N)CCCC4)nc21 (stereo unspecified)	3	0.7	5.3	-0.7	-0.5	0.67	3%
Cc1ccc(OC(C)C(=O)Nc2ccncc2)cc1 (stereo unspecified)	-6	-0.3	1.1	0.4	-0.5	0.69	-15%
COc1cccc2c1C(CO)N1C(C#N)C3CC(C(=O)O)C(C1C2)N3C (stereo unspecified)	12	0.8	.	0.4	0.1	.	.
Cc1ccc(-c2nc3ccccc3c(=O)n2NC(=S)N(C)C)cc1	-12	-0.2	0.7	1.5	0.2	0.7	-4%
CN(C1CCCCC1)S(=O)(=O)c1ccc2c(c1)c(=O)c(C(=O)NCCCN1CCCC1)cn2C	-5	2.1	2.9	-7.8	1.1	0.69	-2%
